# Source: PubChem BioAssay (Johns Hopkins Ion Channel Center)
# KCNQ2 enhance: potentiators of rat KCNQ2 potassium channel; hit rate 0.54% among 310,000; CHO-K1 KCNQ2, FluxOR thallium flux fluorescence; active compounds read high; B-score at 10 µM; AID 2239; O88943;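 active = fluorescence ratio B-score at least 3 SD of library B-scores, with initial fluorescence B-score within 3 SD, cut at about 5.3 in these data; same plate scores as AID 2156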;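 also: B-score of peak minus minimum over baseline fluorescence ratio after K+ and Tl+ stimulus; positive B-score means potentiation of KCNQ2 with more thallium influx and brighter signal; only the inactives scoring about 0 or higher are listed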
# Target sequence (O88943 whole entry, looked up): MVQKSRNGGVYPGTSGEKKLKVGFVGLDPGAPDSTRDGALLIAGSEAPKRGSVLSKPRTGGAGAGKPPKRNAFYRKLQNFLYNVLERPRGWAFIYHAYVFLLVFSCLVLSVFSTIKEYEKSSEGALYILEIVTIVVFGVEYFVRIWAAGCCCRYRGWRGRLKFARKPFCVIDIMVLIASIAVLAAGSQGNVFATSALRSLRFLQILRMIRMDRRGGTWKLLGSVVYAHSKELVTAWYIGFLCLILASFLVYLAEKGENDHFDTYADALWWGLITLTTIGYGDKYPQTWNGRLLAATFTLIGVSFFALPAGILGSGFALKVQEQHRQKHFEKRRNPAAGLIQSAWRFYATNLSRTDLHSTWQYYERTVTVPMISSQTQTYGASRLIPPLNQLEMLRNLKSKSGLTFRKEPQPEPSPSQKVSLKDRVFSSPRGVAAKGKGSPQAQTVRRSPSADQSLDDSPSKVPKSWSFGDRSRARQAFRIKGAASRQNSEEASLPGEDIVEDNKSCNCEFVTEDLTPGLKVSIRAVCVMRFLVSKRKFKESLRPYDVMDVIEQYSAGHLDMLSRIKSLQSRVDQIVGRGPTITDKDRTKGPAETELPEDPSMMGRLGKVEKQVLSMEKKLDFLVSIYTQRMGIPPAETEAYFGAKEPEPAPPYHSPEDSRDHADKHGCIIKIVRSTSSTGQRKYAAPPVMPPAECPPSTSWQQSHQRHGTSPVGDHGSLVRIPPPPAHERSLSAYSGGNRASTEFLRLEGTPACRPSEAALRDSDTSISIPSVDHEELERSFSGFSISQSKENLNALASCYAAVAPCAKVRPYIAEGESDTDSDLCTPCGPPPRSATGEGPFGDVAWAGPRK
# KCNQ2 enhance baseline: recorded beside KCNQ2 enhance, whose call it bears; B-score; compound at 10 µM; measured here: initial fluorescence intensity artifact check;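 brightness before thallium and not channel activity; 0 = typical well and far values either way flag optical interference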
# An asterisk follows results filed as active; & = joins results of further samples. An excerpt, so the mix of outcomes need not match the whole.
KCNQ2 enhance	KCNQ2 enhance baseline	mol
2.1	-0.93	CCOC(=O)N1CCC(Nc2c(OCC)c(=O)c2=O)CC1
0.54	0.01	Cc1cc(N2CCN(C/C=C/c3ccccc3)CC2)n2ncnc2n1
1.1	-0.49	CC(C)(C)c1ccc(COC(=O)CNC(=O)CNC(=O)Cc2ccccc2)cc1
0.08	0.91	COc1ccc(OCCOC(=O)CNC(=O)c2ccc(Cl)cc2Cl)cc1
0.06	0.62	Cc1onc(-c2ccccc2)c1C(=O)Nc1nnc(CC(C)C)s1
1.1	0.85	CC(C)c1nnc(NC(=O)c2cccnc2)s1
0.88	-0.93	Cc1cc(S(=O)(=O)NCCCN2CCOCC2)ccc1F
0.79	0.63	Cc1nc2ccccn2c1C(=O)NN
1.9	0.1	COc1ccc(C2=NOC(C(=O)NCC(C)C)C2)cc1 (configuration not stated)
0.02	0.14	O=C(C1CCN(S(=O)(=O)c2cccnc2)CC1)N1CCN(C2CCCC2)CC1
1.3	0.49	O=C(CN1C(=O)c2ccccc2C1=O)N1CCN(C(=O)c2ccco2)CC1
0.49	-2.6	CC(=O)c1cccc(NC(=O)c2ccc3c(Cl)c4c(nc3c2)CCCC4)c1
0.47	-2.3	COC(=O)c1c(NC(=O)CN2CCN(S(=O)(=O)c3ccccc3)CC2)sc2c1CCC(C)C2 (configuration not stated)
0.06	0.19	CCNc1nc(NC(C)CC)nc(Oc2ccc(OCC)nn2)n1 (configuration not stated)
0.61	0.84	O=C(CSc1nnc(Nc2ccccc2F)s1)c1cc2ccccc2o1
0.11	1.3	CC(=O)c1sc(Nc2cccc(C)c2)nc1C
0.34	-0.67	Cc1ccc(N(CC(=O)NCc2ccc(Cl)cc2)S(C)(=O)=O)cc1
1.1	0.75	COC(=O)c1cn(C(=O)c2ccccc2F)nc1N
0.77	0	CCOCCCNC(=O)CCn1ccc2cc(S(=O)(=O)N3CCCC3)ccc21
1.9	-0.26	CC(C)(C)c1cc(N)n(-c2ccc(C(=O)O)cc2)n1
0.02	-0.3	O=C(COC(=O)c1cc([N+](=O)[O-])ccc1N1CCOCC1)Nc1ccc(Cl)cc1
3	-0.7	CC(C)(C)NC(=O)C(=O)NNC(=O)COc1ccccc1
1	-2.2	CS(=O)(=O)N(CC(=O)Nc1ccc(S(=O)(=O)N2CCOCC2)cc1)c1ccccc1Cl
2.4	-0.82	COc1ccc(NC(=S)N2CCN(c3ccccn3)CC2)cc1
4.7	-0.01	N#C/C(=C\c1ccc(-c2ccccc2[N+](=O)[O-])o1)C(=O)Nc1nc(-c2cccs2)cs1
0.96	0.12	O=C(CSc1nc2ccccc2c(=O)[nH]1)NCc1ccc(Cl)cc1
1.5	-0.03	Cc1ccccc1N(Cc1cc(=O)[nH]c2ccccc12)C(=O)C(C)C
0.42	-0.45	O=c1c2ccccc2cnn1Cc1n[nH]c(=S)n1-c1ccccc1
0.66	0.47	N#Cc1cc([N+](=O)[O-])ccc1NCCN1CCOCC1
1.1	1.2	Cc1ccc(N(C(=O)c2csnn2)C(C(=O)NCc2ccccc2)c2ccccn2)cc1 (configuration not stated)
2.5	-1.6	CCSc1nnc(C)c2ccccc12
0.05	-0.28	COc1cccc(C(C2=C(O)CC(C)(C)CC2=O)C2C(=O)CC(C)(C)CC2=O)c1 (configuration not stated)
0.99	-1.6	CCOC(=O)C(C)(C)Oc1cccc2c1S(=O)(=O)c1ccccc1-2
0.31	0.74	Cc1nc2ccccc2c(=O)n1NC(=O)c1ccccc1F
1.4	-0.09	CCCCCn1cnc2sc(-c3ccccc3)cc2c1=O
0.67	0.16	CC(C)N(CC#CCC(O)(c1ccccc1)c1ccccc1)CCO
1.2	0.17	CCC(C)NC(=O)Nc1ccccc1F (configuration not stated)
1.4	-0.8	COc1cccc(C(=O)Nc2cccc(-c3nnc(-c4ccco4)o3)c2)c1
0.04	-0.88	O=C(COC(=O)c1ccccc1-n1cnnn1)c1ccccc1
1.4	-0.43	COC(=O)/C=C1\N/C(=N/c2nc(C)c3cc(OC)ccc3n2)NC1=O
2.1	-0.84	COc1cc(S(=O)(=O)n2ccc(C)n2)c(OC)cc1Cl
0.47	0.69	CCOC(=O)Cn1c(C(C)=O)nc2ccccc21
2.1	-0.05	CCOC(=O)N1CCN(C(=O)c2ccc(CS(=O)Cc3ccccc3Cl)o2)CC1 (configuration not stated)
1	-1.1	CCCCn1c(-c2c(Cl)c(C)nn2C)n[nH]c1=S
0.42	1.8	O=C(/C=C/c1ccc(F)cc1)Nc1nc2ccccc2[nH]1
0.23	-1.2	CC(C(=O)NC1C(=O)N2C(C(=O)O)=C(CSc3nnnn3C)CSC12)n1cc(Br)cn1 (configuration not stated)
0.15	2.4	O=C(COC(=O)Cc1ccc(F)cc1)NCc1ccco1
1.1	-2.2	CCCc1nnc(N2C(=O)c3cccc4cccc(c34)C2=O)s1
0.56	-0.16	Cc1csc(SCC(=O)Nc2sc3c(c2C#N)CCC3)n1
0.06	-0.21	CC(Sc1nnc(Cc2cccs2)n1C1CCCCC1)C(N)=O (configuration not stated)

# Following part
KCNQ2 enhance	KCNQ2 enhance baseline	mol
0.15	0.25	COc1ccc(-n2c(=S)[nH]c3cc(C(=O)Nc4ccccc4OC)ccc3c2=O)cc1
0.68	-0.01	COC(=O)[C@@H]1C[C@@H]2CC[C@@H](O)C[C@@H]2N1Cc1ccc(OC)cc1
0.98	-0.28	C=CCNC(=S)NCc1ccc(CNC(=S)NCC=C)cc1
1.4	-0.1	O=C(CCNC(=O)N1CC(=O)Nc2ccccc21)Nc1ccc(Cl)cc1
0.24	-0.76	CCOC(=O)C1(C)/C(=N/Nc2cccc(Cl)c2)C(=O)C(=O)N1c1ccccc1 (configuration not stated)
3.4	-1.2	Cc1ccc(-c2nn(-c3ccccc3)cc2/C=C/C(=O)O)o1
0.48	0.1	O=P(c1ccccc1)(c1ccccc1)c1nc(-c2ccccc2)oc1N1CCOCC1
0.3	-0.01	CNC(=O)COC(=O)c1ccccc1C(=O)c1ccc(Cl)c([N+](=O)[O-])c1
0.07	-2.1	CC(NC(=O)c1cccc(N2CCCC2=O)c1)c1ccc2c(c1)OCCO2 (configuration not stated)
1.3	-2	Cc1cccc(C(=O)N2CCCC(CCC(=O)N3CCN(c4ccccn4)CC3)C2)c1 (configuration not stated)
0.4	-0.38	COc1cc2c(cc1OC)C(Cc1ccc(O)cc1)NCC2 (configuration not stated)
0.43	-0.82	Cc1cc(C)c(C#N)c(N2CCN(Cc3ccccc3)CC2)n1
0.84	0.57	CCNc1nc(NC(C)CC)nc(Oc2ccc(=O)[nH]n2)n1 (configuration not stated)
0.63	-1.9	COc1cc(/C=N/O)c(Br)cc1OCC(=O)Nc1ccccc1C
0.57	-1.3	CCOc1cc(/C=C2/NC(=O)NC2=O)cc(Br)c1OCc1ccc(C(=O)O)cc1
0.34	-0.02	COc1ccc(Nc2nc3ccccc3n3cnnc23)cc1
0.53	1.3	CC1=C(C(=O)OCc2ccccc2)C(c2ccccc2Cl)NC(=O)N1CCCC(=O)O (configuration not stated)
0.68	-1.4	c1ccc2c(Nc3nc(-c4ccncc4)nc4ccccc34)cccc2c1
0.22	-0.3	COc1ccc(N2C(=O)c3ccccc3NC23CCC(C)CC3)cc1 (configuration not stated)
0.65	-0.24	Cc1nc(C(F)(F)F)nc(Nc2ccc(Br)cc2)c1C#N
0.15	-0.71	CC1(C)NC(=O)N(CCOCCOc2ccc3ccccc3c2Br)C1=O
1.2	-0.3	O=C(O)/C=C/C(=O)N1CCN(C(c2ccccc2)c2ccccc2)CC1
0.75	0.65	CCCC(=O)Nc1ccc2nc(SCC(=O)Nc3nccs3)sc2c1
0.02	-0.12	O=C(CCc1nnc2ccc(NCc3ccccc3)nn12)NCC1CCN(C2CCCC2)C1 (configuration not stated)
0.36	-1.2	COc1cc(OC)cc(C(=O)Nc2ccc3c(c2)n(C)c(=O)n3C)c1
0.23	-1.1	Cn1c(=O)c2cc(S(=O)(=O)Nc3cccc(F)c3)ccc2n(C)c1=O
1.3	-2.7	O=C(Nc1c2c(nn1-c1ccccc1)CS(=O)(=O)C2)c1ccc2c(c1)OCO2
0.82	1.1	CCS(=O)(=O)n1nc(-c2ccc(Cl)cc2)nc1N
1.3	-1.8	O=C(NCc1ccco1)C1CCN(c2nnc(-n3cccc3)s2)CC1
1.9	-0.86	Cn1cnnc1SCC(=O)NC1CCCC1
0.01	1.2	Cc1ccc(C(=O)C(C)OC(=O)c2cc(=O)[nH]c3ccccc23)cc1 (configuration not stated)
0.55	0.7	O=C(O)c1cc(O)c2c(c1)[C@H]([C@H]1c3cc(C(=O)O)cc(O)c3C(=O)c3c(O[C@@H]4O[C@H](CO)[C@@H](O)[C@H](O)[C@H]4O)cccc31)c1cccc(OC3O[C@H](CO)[C@@H](O)[C@H](O)[C@H]3O)c1C2=O (some centres not stated)
1.3	-0.33	O=C1CC2c3ccccc3C1C1C(=O)N(Cc3ccccc3)C(=O)C21 (configuration not stated)
0.45	-0.03	Cc1cccc(OCC(=O)Oc2ccc(Cl)cc2)c1
1.7	2.3	c1ccc2c(-n3cnnn3)cccc2c1
0.72	1.4	Cc1ncc(CO)c(CNc2ccc(-c3nc4ccccc4[nH]3)cc2)c1O
0.07	2	CCn1c(COc2ccc3c(c2)OCO3)nnc1SCC(=O)c1ccccc1
1.4	-0.94	S=c1[nH]nc(C2CCCCC2)n1/N=C/C=C/c1ccccc1
0.26	-1.3	C=CCNC(=O)c1cccn1-c1ccsc1C(=O)OC
0.2	0	Cc1cccc(N(C(=O)CCC(=O)Nc2cc(C)on2)C(C(=O)NC2CCCC2)c2ccccc2)c1 (configuration not stated)
0.09	1.7	Cc1c(NC(=O)c2ccc(S(=O)(=O)N3CC(C)OC(C)C3)cc2)c(=O)n(-c2ccccc2)n1C (configuration not stated)
1.3	-2.3	Cc1cc(CSc2ccccc2)ccc1NC(=O)c1ccc(CN2CCOCC2)cc1
0.47	-0.05	O=C(Nc1ccccc1)c1cc2ccccc2o1
0.27	-1.9	COCCNC(=S)c1ccc(Br)cc1
0.06	1.2	CS(=O)(=O)N(Cc1ccc(Cl)cc1)c1ccc(C(=O)NCCSCc2ccco2)cc1
0.02	-1.2	CCc1nnc(NC(=O)CSc2nccn2-c2cc(C)cc(C)c2)s1
0.63	-1.8	Cc1ccc(NC(=S)Nc2c(C)n(C)n(-c3ccccc3)c2=O)cc1Cl
0.33	0.05	Cc1ccn2c(=O)nc(SCC(=O)Nc3cc(C)on3)nc2c1
0.15	0.29	COc1ccc(C(=O)NC(=S)Nc2ccc3[nH]c(=O)[nH]c3c2)cc1
0.48	0.01	Cc1ccc(S(=O)(=O)Nc2ccc3oc(=O)sc3c2)c(C)c1

# Going on with the list.
KCNQ2 enhance	KCNQ2 enhance baseline	mol
0.65	-0.2	CCc1c(C)nc(SCC(=O)Nc2cccc(Br)c2)[nH]c1=O
0.65	-2	COc1ccc(CCN=C(N)C(C)c2ccccc2)cc1OC (configuration not stated)
2.9	0.28	CCOc1ccccc1NC(=O)C(=O)CC(=O)c1ccc(OC)cc1
1.2	-0.44	CC(C)(CNC(=O)c1ccc(Br)o1)CNC(=O)c1ccc(Br)o1
0.7	0.61	Cc1ccc(C(=O)COC(=O)c2cc(Cl)ccc2O)cc1[N+](=O)[O-]
2.1	-2	CC(C)OP(=O)(c1ccc(N(C)C)cc1)C(O)c1ccncc1 (configuration not stated)
1.5	2.4	O=C1CCC(C(=O)NCCCn2ccnc2)N1 (configuration not stated)
0.02	1.9	Cn1c(=O)c(C(=O)c2ccccc2)nc2ccccc21
1.9	-1.1	CN1CCN(CC(=O)Nc2ccccc2[N+](=O)[O-])CC1
0.08	2.2	CC(C)CNC(=O)COc1ccc(Sc2ccc(OCC(=O)NCC(C)C)cc2)cc1
0.9	1.3	CC1Oc2ccccc2N(CC(=O)NCCCN2CCOCC2)C1=O (configuration not stated)
1&0.59	-0.57&-0.34	CC12CCC(C(=O)O)(C/C1=N\O)C2(C)C (configuration not stated)
0.01	-0.9	COCCN(CCOC)C(=O)c1ccc(NS(=O)(=O)c2ccc3[nH]c(=O)[nH]c3c2)cc1
2.6	0.19	O=C(CCc1n[nH]c(=O)[nH]c1=O)Nc1cccc([N+](=O)[O-])c1
1.3	-0.13	Cc1csc2nc(CSc3nncn3-c3ccccc3)c(Br)n12
0.26	0.78	COC(=O)CCC(=O)NNC(=O)Cc1ccccc1
0.59	-1.7	Cn1c(Cc2csc(N)n2)nnc1SCC(=O)NCc1ccccc1
0.81	0.01	Cc1cc(S(=O)(=O)NCC(c2ccccc2)c2ccccc2)ccc1-n1cnnn1
